gsp antagonist: gsp mutant antagonism. gsp-mutant cells, cAMP HTRF, 30 min; control for the full effect not named in the record. AID 624288. actives 0.4% (n = 340,000). Potency, µM (top dose mostly 76.9 µM), for inactives: top-dose activity change, negative = inhibition, hits mostly inhibitors; active = falling curve of any shape with a large fitted effect; inconclusive = falling curve, mostly with a smaller effect; inactive = flat or rising curve; cell line not stated here;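 also: intracellular cAMP measured with PDE inhibitor Ro 20-1724 present during compound exposure; potency is read from the fitted curve at half-maximal effect; % is scaled to controls: 0 for no effect and ±100 for the full control effect; nearly all actives have a fitted effect of over 65% in size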
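Cells, 2000/well, grown 16–24 h in DMEM 10% FBS with 0.5 mg/ml G418, then compounds plus […] (300 uM addition stock), 30 min at 37C. cAMP read by HTRF (cAMP-d2 and anti-cAMP antibody-K in lysis buffer) after 30 min RT.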
TRPV1 PAM: human TRPV1 potentiation. TRPV1-expressing cells, Fluo-8 calcium influx, capsaicin EC20 potentiation; host cell line not named in the record; control for the full effect not named in the record. potentiation, % at 8.33 µM. actives 0.02% (n = 320,000); active means potentiation above 80%; inconclusive means 30% to 80%; inactive means below 30%; also: 0% is about no effect
Target sequence (Q8NER1 whole entry, looked up): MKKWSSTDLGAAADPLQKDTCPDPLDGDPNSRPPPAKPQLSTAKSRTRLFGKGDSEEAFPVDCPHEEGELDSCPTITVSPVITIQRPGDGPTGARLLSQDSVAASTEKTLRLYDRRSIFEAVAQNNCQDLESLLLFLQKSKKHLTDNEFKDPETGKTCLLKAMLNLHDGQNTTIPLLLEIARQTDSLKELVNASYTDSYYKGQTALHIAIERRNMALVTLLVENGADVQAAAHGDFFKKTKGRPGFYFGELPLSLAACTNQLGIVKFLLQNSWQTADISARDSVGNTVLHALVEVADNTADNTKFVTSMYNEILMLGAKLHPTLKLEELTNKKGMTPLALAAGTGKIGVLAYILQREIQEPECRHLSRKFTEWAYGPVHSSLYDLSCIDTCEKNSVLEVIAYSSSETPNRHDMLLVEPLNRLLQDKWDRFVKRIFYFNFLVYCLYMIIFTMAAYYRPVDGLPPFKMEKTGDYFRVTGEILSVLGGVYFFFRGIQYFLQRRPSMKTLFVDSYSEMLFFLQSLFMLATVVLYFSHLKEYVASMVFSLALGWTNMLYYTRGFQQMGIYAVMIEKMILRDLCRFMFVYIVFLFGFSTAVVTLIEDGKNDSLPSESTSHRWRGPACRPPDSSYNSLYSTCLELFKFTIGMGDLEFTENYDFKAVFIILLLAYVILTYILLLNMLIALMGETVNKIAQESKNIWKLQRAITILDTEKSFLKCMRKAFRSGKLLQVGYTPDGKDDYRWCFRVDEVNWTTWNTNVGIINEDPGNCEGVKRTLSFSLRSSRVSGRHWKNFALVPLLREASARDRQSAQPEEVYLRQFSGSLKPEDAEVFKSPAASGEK
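Cells expressing TRPV1 were dye-loaded with Fluo-8 and read kinetically: 10 s baseline, 3 min after compound (agonist portion), then 2 min after EC20 capsaicin (allosteric enhancer portion). Calcium-bound dye fluorescence at 480/520 nm.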
CtBP-E1A inh: blocks the CtBP interaction with E1A; AlphaScreen GST-E1A/His-CtBP binding, 1536-well; stronger effect = lower value; control for the full effect not named in the record; activity change, % (no concentration beside the values); actives 0.49% (n = 340,000); AID 651724; in the data active means activity change below about -65%; inconclusive means about -30% to -65%; inactive means above about -30%; also: % is scaled to controls: 0 for no effect and ±100 for the full control effect; compound concentration not given in the record
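Homogeneous bead-based format: GST-tagged E1A captured on glutathione donor beads, His-tagged CtBP on nickel acceptor beads; compounds precede bead addition by 2 h at 37 °C.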
Sfp PPTase inh: Sfp phosphopantetheinyl transferase inhibition | Q9F4F7 | Biochemical Sfp PPTase activity, qHTS | Potency, µM, for the others: max response, negative = inhibition, actives largely listed as inhibitors | actives 3.5% (n = 310,000) | AID 1490; active = well fitted inhibition curve with a large enough effect; inconclusive = small, poorly fitted or top-dose-only effect, or another doubt; inactive = no such curve, though single readings can be large or run the other way;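 also: the enzyme is Sfp with the accession as filed and its product quenches rhodamine fluorescence; potency is read from the fitted curve at half-maximal effect; 0% = enzyme reaction without inhibitor and -100% = no enzyme wells; top concentration of the series not given in the record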
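Reaction rates are the 30-min fluorescence difference (ex 525, em 598 nm) in wells containing 15 nM Sfp, 5 uM rhodamine-CoA and 12.5 uM BHQ-2-YbbR at pH 7.6 with 10 mM MgCl2.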
Menin MLL FP FL: menin-MLL binding inhibition, fluorescein peptide | AID 1766 | FP activity change, % at 61.4 µM | Fluorescence polarization, fluorescein-MLL peptide displacement from menin | 290,000 tested, under 10 active; inconclusive = falling polarisation curve, or a change in total fluorescence; inactive = total fluorescence flat and polarisation flat or rising; no compound was filed as active; the % refers to the polarisation; negative = inhibition;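 also: % of control where 0% means no effect; inhibitors lower the polarisation; unlabelled MLL peptide was the positive control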
ClpP mod: qHTS Assay for Activators of ClpP | AID 651965, 2013 | purified B. subtilis ClpP, FRET peptide cleavage, 20 min | ATP-dependent Clp protease proteolytic subunit (Bacillus subtilis (strain 168)), P80244 | actives 1.9% (n = 340,000) | Potency, µM (doses to about 57.5 µM), without a hit: at the top dose activity change, negative = active; active = well fitted falling curve with a large enough effect; inconclusive = small, poorly fitted or top-dose-only effect; inactive = no such curve, though single readings can be large or run the other way; also: potency is read from the fitted curve at half-maximal effect; the source files actives as falling curves though it sought activators and does not explain the sign; nearly all actives have a fitted effect of over 65% in size; many hits overshoot -100%
Target sequence (P80244 whole entry, looked up): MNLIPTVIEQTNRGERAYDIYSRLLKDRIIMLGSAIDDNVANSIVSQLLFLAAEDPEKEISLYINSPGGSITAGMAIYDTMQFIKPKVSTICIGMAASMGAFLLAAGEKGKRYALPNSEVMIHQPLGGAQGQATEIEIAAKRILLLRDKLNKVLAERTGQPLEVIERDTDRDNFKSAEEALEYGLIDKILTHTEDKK
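ClpP 10 microg/mL final, pH 8 Tris/KCl buffer with BSA, glycerol, Tween-20; compound pinned in; FRET-FV substrate; RT 20 min; Ex320/Em430; ΔFRET vs ADEP 5.8 microM, DMSO, no enzyme.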
gsp ag: gsp mutant agonism; gsp mutant cells, cAMP HTRF, 30 min; control for the full effect not named in the record; Potency, µM (series often up to 76.9 µM), for inactives: top-dose activation (cAMP increase), hits mostly activators; actives 0.13% (n = 340,000); active = well fitted activation curve with a large enough effect; inconclusive = small, poorly fitted or top-dose-only effect, or another doubt; inactive = no such curve, though single readings can be large or run the other way; cell line not stated here;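 also: phosphodiesterase inhibitor Ro 20-1724 added with compounds to block cAMP breakdown; potency is read from the fitted curve at half-maximal effect; nearly all actives have a fitted effect of over 60% in size; about a fifth of the inactives were tested at one dose only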
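Cells stably selected in G418 were plated at 2000/well, grown 16-24 hr, then given compounds in DMSO with the PDE inhibitor […] (300 uM solution added) for 30 min at 37C; cAMP was read by HTRF.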
* = called active by the depositor; ? = inconclusive; . = no result given; [ ] = remark or other dose.

SMILES	gsp antagonist	TRPV1 PAM	CtBP-E1A inh	Sfp PPTase inh	Menin MLL FP FL	ClpP mod	gsp ag
CC1CCCC(C)N1CCNC(=O)Nc1ccc(Cl)cc1 (centres undefined)	8%	-6	2	15%	1.6	-1.5%	14%
CC1(c2nnc(-c3ccncc3)o2)CC(c2ccc([N+](=O)[O-])cc2)=NO1 (centres undefined)	1%	-32	-13	-6%	3.0	-2.2%	.
Cc1ccc(S(=O)(=O)Nc2ccc(N(C)S(=O)(=O)c3ccc(C)cc3)cc2)cc1	-21%	11	2	13%	3.1	.	-2%
O=C1/C(=C/c2cccnc2)Sc2ccccc21	?	-9	-3	-17%	4.8	1.7%	18%
COc1ccc(N2CC(NC(=O)N3CCN(C(=O)c4ccco4)CC3)CC2=O)cc1OC (centres undefined)	8%	6	-8	.	.	-3.5%	-38%[inhibitor]
O=C(Nc1ccccc1C(=O)NCc1ccccc1)c1ccco1	-2%	?	4	4%	2.5	-2.1%	10%
CC(C)(C)Cc1nc(-c2ccccn2)no1	1%	7	17	9%	1.5	-0.7%	-62%
Cc1cn([C@H]2C[C@H](O)[C@@H](CNCc3cnc(N4CCOCC4)nc3)O2)c(=O)[nH]c1=O	.	.	0	.	.	-12%	-13%
O=C(CSCc1ccc(Cl)cc1)Nc1ccccc1O	-4%	-9	0	10%	0.0	.	-29%
O=C(C1=C(O)C(=O)N(CC2CCCO2)C1c1cccnc1)c1ccco1 (centres undefined)	30%	-13	3	11%	?	-1.0%	?
O=C(O)c1ccc(/C=N/Nc2ccc(Cl)nn2)cc1	2%	5	0	?	-5.8	.	21%
CCCc1cc(=O)oc2c3c(cc(OCC(=O)NCC4CCC(C(=O)O)CC4)c12)OC(C)(C)CC3 (centres undefined)	-17%	12	1	1%	0.6	4.8%	.
Cc1cc(NC(=O)CSCC(=O)OCC(=O)Nc2cc(C)c(C)cc2[N+](=O)[O-])no1	4%	-3	2	.	.	1.1%	-8%
CC(C)n1c(COc2ccccc2)nc2ccccc21	-10%	-9	9	-3%	-2.2	.	-2%
CN(C)S(=O)(=O)c1cccc(C(=O)OCC(=O)Nc2ccccc2OC(F)F)c1	0%	.	5	12%	3.1	-0.2%	1%
CC(=O)C1=CN(CC2CCCCC2)CCC1=O	0%	.	4	.	.	-0.8%	.
CCC(C)c1ccc(NC(=S)N2CCCC2)cc1 (centres undefined)	-2%	-7	0	7%	.	0.7%	-30%[inhibitor]
Cc1cc(C)n(CC2CC(=O)N(c3cc(Cl)cc(Cl)c3)C2=O)n1 (centres undefined)	?	4	8	14%	-1.6	-1.3%	-29%
O=C(COc1ccccc1)NCC1CCCO1 (centres undefined)	1%	-1	0	6%	2.3	-1.7%	-2%
COc1cc(C(=O)NCC(c2ccco2)N2CCCC2)ccc1OCc1c(C)noc1C (centres undefined)	14%	5	-3	3%	0.5	0.1%	-36%[inhibitor]
COc1ccc(C(=O)C(CN2CCOCC2)c2ccccc2)cc1F (centres undefined)	-2%	-10	3	5%	-6.6	-1.0%	-41%[inhibitor]
CCn1c(=O)cc(OCC(=O)Nc2ccccc2N2CCN(C)CC2)c2ccccc21	5%	-8	1	8%	2.1	-1.9%	-32%[inhibitor]
O=C(Nc1ccccc1)Nc1ccno1	-6%	?	6	-12%	5.1	-0.4%	11%[15.4 µM]
COc1cc(CNC(C)c2ccccc2)c(Br)cc1OCC(N)=O (centres undefined)	0%	-2	7	19%	-3.1	-0.6%	?

A few values from the results shown:
gsp antagonist with COc1cc(C(=O)NCC(c2ccco2)N2CCCC2)ccc1OCc1c(C)noc1C (centres undefined) : 14%
gsp ag with Cc1cn([C@H]2C[C@H](O)[C@@H](CNCc3cnc(N4CCOCC4)nc3)O2)c(=O)[nH]c1=O : -13%

Going on with the list.
SMILES	gsp antagonist	TRPV1 PAM	CtBP-E1A inh	Sfp PPTase inh	Menin MLL FP FL	ClpP mod	gsp ag
Cc1ccccc1OCC(=O)N/N=C/c1cc2ccccc2nc1Cl	?	7	13	?	3.3	-15%	?
Cc1occc1C(=O)N/N=C/C(Br)=C\c1ccccc1	-23%	-15	0	-11%	4.5	.	-1%
O=C(CCCCC(=O)NN=Cc1ccccc1O)NN=Cc1ccccc1O	4%	.	-13	.	.	.	-23%
O=c1c2ccccc2[nH]c(=S)n1CCN1CCN(Cc2ccccc2)CC1	11%	-12	-8	9%	6.2	-0.5%	-1%
Cc1ccc(C(=O)Nc2sc3c(c2C(=O)NCc2ccco2)CCCC3)cc1	8%	7	5	7%	-3.0	11%	-12%
C=CC[C@H](CC(=O)NCCO)C(=O)NC[C@@H](OC(=O)[C@@H](CC=C)Cc1ccc(F)cc1)c1ccccc1	-7%	.	7	.	.	1.9%	24%
Cc1cc(C)c(C#N)c(SCC(=O)NC(C)(C)C)n1	-3%	-7	3	14%	0.1	0.7%	3%
Cc1cc(NC(=O)C2CCCN(S(=O)(=O)c3c(C)noc3C)C2)no1 (centres undefined)	7%	3	5	10%	-1.8	-3.3%	-15%
COc1ccc(OC)c2c1CCC2=O	-7%	0	-4	18%	8.9	32µM*	7%
OC(Cc1cccnc1)(Cc1cccnc1)c1cc2ccccc2[nH]1	18%	7	-12	9%	5.7	0.4%	-20%[15.4 µM]
CC(C)N(CCCNC(=O)C1CCC(CNS(=O)(=O)c2ccccc2)CC1)Cc1ccccc1 (centres undefined)	5%	-1	1	6%	.	0.2%	16%
CC(C)(C)OC(=O)N1CCCC(C(=O)Nc2cccc(C(=O)N3CCCCC3)c2)C1 (centres undefined)	3%	.	-3	.	.	1.2%	.

One compound at a time, from the list above:
Cc1cc(C)c(C#N)c(SCC(=O)NC(C)(C)C)n1 is entered as gsp antagonist: -3%; TRPV1 PAM: -7; CtBP-E1A inh: 3; Sfp PPTase inh: 14%; Menin MLL FP FL: 0.1; ClpP mod: 0.7%; gsp ag: 3%
O=c1c2ccccc2[nH]c(=S)n1CCN1CCN(Cc2ccccc2)CC1 is entered as gsp antagonist: 11%; TRPV1 PAM: -12; CtBP-E1A inh: -8; Sfp PPTase inh: 9%; Menin MLL FP FL: 6.2; ClpP mod: -0.5%; gsp ag: -1%

Further compounds:
SMILES	gsp antagonist	TRPV1 PAM	CtBP-E1A inh	Sfp PPTase inh	Menin MLL FP FL	ClpP mod	gsp ag
CCCCCC1CC(=O)NC1(C(=O)OCC)C(=O)OCC (centres undefined)	4%	.	-4	.	.	0.5%	14%[15.4 µM]
Cc1ccc2cc(C#N)c(NCc3ccco3)nc2c1	-20%	1	0	?	2.5	25µM*	10%
CCn1c(C)nnc1SCC(=O)Nc1ccc(Cl)cc1	8%	-2	.	8%	0.1	-0.6%	-28%
CC1CCCC(C)N1Cc1cn2ccccc2n1 (centres undefined)	-17%	-4	4	16%	4.3	18µM*	-54%[inhibitor]
O=c1c2ccccc2c(-c2cccc(C(F)(F)F)c2)nn1-c1ccccc1	-48%	-29	0	-9%	-9.4	0.5%	-9%[15.4 µM]
Cc1ccc(Oc2ccc3c(c2)C(=O)N(c2ccc(S(=O)(=O)Nc4nccs4)cc2)C3=O)cc1	?	3	-17	-7%	10	0.5%	38%
COc1cccc(NC(=O)/C=C/c2ccco2)c1	-15%	-23	0	35µM*	17	.	-19%[15.4 µM]
CCN(CC(=O)NCc1ccc(Cl)cc1)S(=O)(=O)c1ccc(F)cc1	5%	-17	15	2%	-0.7	2.8%	11%[15.4 µM]
Cc1onc(-c2ccccc2)c1C(=O)Nc1ccc(OC(C)C)cc1	3%	-9	5	0%	-0.5	2.1%	-31%[inhibitor]
O=C(CSc1ccc(-c2cccnc2)nn1)Nc1ccc(F)cc1F	-3%	7	-3	6%	.	0.9%	-1%[15.4 µM]
COc1cc(C(=O)N2CCN(c3cccc(Cl)c3)CC2)ccc1OCC(=O)N1CCOCC1	.	.	4	.	.	-1.8%	-174%[inhibitor]
C=CC[C@@H](Cc1ccc(F)cc1)C(=O)OC[C@H]1CCCN1C(=O)[C@H](CC=C)CC(=O)NCCO	2%	.	6	.	.	-0.5%	28%
COc1ccc(-c2nnc3ccc(SCC(=O)Nc4nc5ccccc5s4)nn23)cc1OC	14%	6	-20	3%	-1.0	-1.2%	?
CC1CC(C)CN(c2oc(-c3ccccc3F)nc2C#N)C1 (centres undefined)	-17%	-15	-1	-2%	-3.1	0.5%	-3%[15.4 µM]
N=C1C2=C3Sc4ccccc4N3CCCC2=NN1c1cccc(S(=O)(=O)O)c1	-5%	5	-29	89µM*	5.1	.	-14%[15.4 µM]
CC1(N2CCCCC2)CC2(O)C(=[N+]1[O-])CCC/C2=N\O (centres undefined)	18%	-9	-2	12%	-1.3	1.2%	2%
Cc1ccc(C(=O)NCCc2nnc3ccc(N4CCCC4)nn23)cc1	-6%	1	3	1%	.	0.5%	0%
CCCOc1ccc(-c2csc(NC(=O)CN3C(=O)CCC3=O)n2)cc1	8%	?	-3	4%	3.6	-1.2%	?
C=CCNC(=O)COC(=O)/C=C/c1cccs1	2%	8	2	19%	-0.4	.	19%
COc1cc2cc(CCCOC(=O)c3cc(OC)c(OC)c(OC)c3)oc(=O)c2cc1OC	-2%	.	-6	.	.	-2.2%	?
O=C(NNc1cc(Cl)ccc1Cl)c1cccs1	9%	15	9	?	-1.2	.	7%[15.4 µM]
CC1=C(C(=O)Nc2ccc(F)cc2)C(c2cccc(C)c2)n2nc(CCCO)nc2N1 (centres undefined)	2%	-11	8	0%	1.7	-0.3%	?
CCCCN=CC1=C(O)C(C(=O)OC)C(C)(C)CC1=O (centres undefined)	-5%	-5	-7	8%	1.1	-2.5%	-23%
CCOC(=O)c1sc2nc(C(C)C)c3c(c2c1N)CC(C)(C)OC3	6%	1	-1	22%	2.5	?	16%
C=CCOc1c(Br)cc(CNc2ccc3[nH]c(=O)[nH]c3c2)cc1OCC	2%	-1	-14	7%	-1.7	.	-26%[15.4 µM]
Cc1ccc(SCCC(=O)NC2CC2)cc1	5%	-5	7	13%	-1.8	.	4%[15.4 µM]
Cc1ccc(S(=O)(=O)/N=C(/c2ccc(F)cc2)N2CCCC2)cc1	-1%	28	.	-8%	0.4	0.7%	-69%[inhibitor]

Limited to gsp antagonist and TRPV1 PAM, for some of the entries so far:
canonical_smiles | gsp antagonist | TRPV1 PAM
CCn1c(=O)cc(OCC(=O)Nc2ccccc2N2CCN(C)CC2)c2ccccc21 | 5% | -8
O=C(Nc1ccccc1)Nc1ccno1 | -6% | ?

Bioassay records from PubChem BioAssay.
